Polio RdRp inh – poliovirus RdRp elongation inhibitors, primary screen, biochemical, fluorescence polarization, total intensity; Genome polyprotein (Poliovirus type 1 (strain Mahoney)), P03300; poliovirus polymerase elongation; active compounds read low; % elongation, % (compound at 16.7 µg/mL); hit rate 0.66% among 150,000; in the data active = % elongation below about 90%; also: some results filed as inactive read as strong as hits
MbtI inh – MbtI salicylate synthase inhibitors, primary screen, biochemical, fluorescence intensity | P9WFX0 | purified MbtI enzyme, fluorescence intensity read-out | inhibition, %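 (about 17 µg/mL by stock and volumes)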 | hit rate 0.89% among 100,000;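 active = above 50% in both replicates, above 80% if mildly self-fluorescent; inactive = the rest, strongly fluorescent compounds included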;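 also: 0% = mean of negative and 100% = mean of positive controls; one replicate is shown; some compounds called inactive have numbers as strong as hits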
Target sequence (P9WFX0 whole entry, looked up): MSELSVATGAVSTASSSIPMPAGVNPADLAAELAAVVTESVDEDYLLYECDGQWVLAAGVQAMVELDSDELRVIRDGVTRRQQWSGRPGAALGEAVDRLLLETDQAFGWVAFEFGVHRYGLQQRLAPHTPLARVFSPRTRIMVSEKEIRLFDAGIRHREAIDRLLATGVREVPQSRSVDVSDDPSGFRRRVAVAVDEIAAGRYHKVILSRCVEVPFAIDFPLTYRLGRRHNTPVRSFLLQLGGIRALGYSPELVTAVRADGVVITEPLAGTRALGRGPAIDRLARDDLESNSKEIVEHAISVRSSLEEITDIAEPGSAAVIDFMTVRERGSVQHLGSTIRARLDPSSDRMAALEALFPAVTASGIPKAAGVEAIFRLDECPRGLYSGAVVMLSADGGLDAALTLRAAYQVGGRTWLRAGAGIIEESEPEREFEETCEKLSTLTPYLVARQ
MenB inh – M. tuberculosis MenB inhibitors, primary screen, biochemical, absorbance | MenB enzyme assay, absorbance read-out; some hits fall short of the stated cut | inhibition, %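 (about 12 µg/mL by stock and volumes)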 | hit rate 0.43% among 100,000;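 active = mean of two replicates above 30%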;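 also: 0% = no compound and 100% = wells with inactive enzyme; the first replicate is given; strong numbers were not always called active; inactives centre near -10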
Target sequence (P9WNP5 whole entry, looked up): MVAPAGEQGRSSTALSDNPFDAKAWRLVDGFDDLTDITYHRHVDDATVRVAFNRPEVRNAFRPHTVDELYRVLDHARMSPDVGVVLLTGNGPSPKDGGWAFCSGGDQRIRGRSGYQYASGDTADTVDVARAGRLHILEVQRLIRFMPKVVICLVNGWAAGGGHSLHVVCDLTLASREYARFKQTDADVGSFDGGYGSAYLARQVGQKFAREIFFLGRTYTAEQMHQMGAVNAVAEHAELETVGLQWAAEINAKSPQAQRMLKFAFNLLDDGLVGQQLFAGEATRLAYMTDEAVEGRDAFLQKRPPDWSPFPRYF
Polio RdRp inh intensity – further read-out of Polio RdRp inh, marked with its call; % elongation; measured here: total intensity read-out; formula for this scale not given here;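 total fluorescence in place of polarization; lower means less elongation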
* hit, by the source's call; nt = not tested or not shown; & = joins results of further samples; ! = repeats disagree.

structure,Polio RdRp inh,Polio RdRp inh intensity,MbtI inh,MenB inh
COc1cccc(NC(=O)c2ccc(OC(=S)N3CCC(C)CC3)cc2)c1,106,102,nt,1
O=C(CNC1Cc2ccccc2C1)Nc1ccccc1N1CCOCC1,100,103,-11,-22
CCc1c(C)sc(NC(=S)n2cc(C)cn2)c1C(=O)OC,101,102,39,0
COc1cc(=O)n(C)c2c(OC(C)=O)cccc12,98,102,6,2
O=C(NCCN1CCOCC1)Nc1ccc(Cl)cc1Cl,101,103,-7,5
O=C(Cc1c(F)cccc1Cl)Nc1cc(C(=O)N2CCCC2)ccc1N1CC2CC(C1)c1cccc(=O)n1C2 (stereo not given),101,104,-6,-10
Cc1ccccc1-n1c(SCc2ccc(F)cc2Cl)nnc1-c1cc2occc2n1C,103,101,7,-11
CCNC(=O)COc1ccccc1Cl,99,101,-7,-21
Cc1ccc(C(=O)C(O)c2ccc(C)cc2)cc1 (stereo not given),nt,nt,0,-4
COc1cc(C=Nc2ccc3[nH]c(=O)[nH]c3c2)ccc1OC(C)=O,104,103,9,-31
CN(C)/C=C1\N=C(SCc2c(Cl)cccc2Cl)NC1=O,101,106,-7,1
CC(=O)Oc1coc2ccc3c(C)cc(=O)oc3c12,108,99,nt,-8

Reformatted with each value named: part of the list above
Cc1ccc(C(=O)C(O)c2ccc(C)cc2)cc1 (stereo not given)
  Polio RdRp inh: nt; Polio RdRp inh intensity: nt; MbtI inh: 0; MenB inh: -4

O=C(CNC1Cc2ccccc2C1)Nc1ccccc1N1CCOCC1
  Polio RdRp inh: 100; Polio RdRp inh intensity: 103; MbtI inh: -11; MenB inh: -22

CN(C)/C=C1\N=C(SCc2c(Cl)cccc2Cl)NC1=O
  Polio RdRp inh: 101; Polio RdRp inh intensity: 106; MbtI inh: -7; MenB inh: 1

CCNC(=O)COc1ccccc1Cl
  Polio RdRp inh: 99; Polio RdRp inh intensity: 101; MbtI inh: -7; MenB inh: -21

(list continues)
structure,Polio RdRp inh,Polio RdRp inh intensity,MbtI inh,MenB inh
CC(C)c1ccc(NC(=O)C2CC(=O)N(C3CCCC3)C2)cc1 (stereo not given),100,100,-5,21
O=C(Nc1ccccc1N1CCOCC1)NC1CCN(C(=O)OCc2ccccc2)CC1,104,101,9,2
C=C(C)CC1NC2CC(C)(C)C1c1ccccc12 (stereo not given),101,106,nt,-18
C=CCSc1nnc(-c2ccccc2)n1-c1ccccc1,102,105,8,8
CCCc1ccc(OCCNC(=O)c2ccc3ccccc3n2)cc1,101,99,nt,-10
CSc1sc(/C(C)=N\O)c2c1/C(=N\O)CC(C)(C)C2,101,107,2,22
COc1ccc(NC(=O)N(CCN(C)C)Cc2cc3cc(OC)ccc3[nH]c2=O)cc1,103,101,80,34*
Cc1ccc2c(CC(=O)NC3CCCC3)coc2c1,102,104,-7,-19
CCOC(=O)N=c1oc2cc(Cl)c(Cl)cc2o1,99,100,96*,4
O=C(c1ccccc1)N1CCN(c2ccc(F)cc2)CC1,99,100,-13,-22
CC(=O)Nc1ccc(S(=O)(=O)N(C)CC(=O)N2CCN(C(=O)c3ccco3)CC2)cc1,103,101,-10,-8
O=C(CSC1=N/C(=C\c2ccc(F)cc2)C(=O)N1Cc1ccco1)N1CCCC1,103,100,-12,5
Cc1cc(C)nc(SCC(=O)N(c2ccccn2)c2ccccn2)n1,100,105,-13,-12
Cc1noc(C)c1COc1cc2ccccc2cc1C(=O)OCc1cc(=O)n2c(C)csc2n1,102,108,102,10
N#CC(=C1CCCC1)c1nc2ccccc2s1,103,103,-9,nt
Cn1c(=O)c(=O)n(C)c2cc(NC(=O)C(C)(C)C)ccc21,98,97,10,13
CC1=C/C(=N\Nc2ccccc2Cl)CC1,100,99,72*,-38
Cc1c(C(=O)OC2CCCCC2=O)oc2ccc(Br)cc12 (stereo not given),103,99,5,-29
O=C(Oc1ccc2cc(OC(=O)c3ccccc3)ccc2c1)c1ccccc1,102,106,-5,1
Cc1ccc2cccc(OC(=O)c3ccc(Br)o3)c2n1,103,103,9,9
N#CCCn1c(SCc2ccc(C#N)cc2)nc2ccccc21,110,107,7,-3
S=c1[nH]nc(C2COc3ccccc3O2)o1 (stereo not given),98&92,102&91,73*!,-121&2
COc1ccc(Cc2c(Cl)nc(SC)nc2NN)cc1,103,101,5,-33
COc1ccc(NCc2cc(=O)oc3cc(NC(C)=O)ccc23)cc1,104,94,56,14
COc1cccc(OC)c1C(=O)NNc1ncc(C(F)(F)F)cc1Cl,103,101,5,1
NC(=O)C[n+]1cccc2ccccc21,81,133,74,3
N#CC(C#N)=C1c2cc(S(=O)(=O)NCCO)ccc2-c2ccc(S(=O)(=O)NCCO)cc21,98,101,-11,-22
O=C(NC1CCCCCC1)c1ccccc1,102,103,0,17
CCN(CC)C(=O)c1ccc(C(=O)c2cc(OC)ccc2OC)cc1,101,100,8,-56
CC12C(=O)N(c3nccs3)C(=O)C1C1C=CC2C1 (stereo not given),99,101,2,6
CC(=Nc1ccc(C)cc1C)c1sc2ccccc2c1O,118,129,-1,-89
CC1(C)CCc2cc(-c3ccn(S(=O)(=O)c4ccc(Cl)cc4)n3)ccc2O1,106,109,-7,-1
CC(C)(C)n1ncc2c(=O)n(CC(=O)NCc3ccc(F)cc3)cnc21,97,101,7,-5
CC12CC3(C(=O)Nc4ccc(Br)cc4)C1CCC23C (stereo not given),99,96,-16,nt
Cc1cc(C(=O)OCC(=O)Nc2ccccc2)c(C)o1,101,102,-3,nt
CC(C)NC(=O)CSc1nnc(N)s1,102,110,-12,-35

Quoted at random: four entries already listed, in no set order.
structure,Polio RdRp inh,Polio RdRp inh intensity,MbtI inh,MenB inh
CCN(CC)C(=O)c1ccc(C(=O)c2cc(OC)ccc2OC)cc1,101,100,8,-56
CC(C)NC(=O)CSc1nnc(N)s1,102,110,-12,-35
CC1(C)CCc2cc(-c3ccn(S(=O)(=O)c4ccc(Cl)cc4)n3)ccc2O1,106,109,-7,-1
N#CC(C#N)=C1c2cc(S(=O)(=O)NCCO)ccc2-c2ccc(S(=O)(=O)NCCO)cc21,98,101,-11,-22

(continued)
structure,Polio RdRp inh,Polio RdRp inh intensity,MbtI inh,MenB inh
Cc1nc2ccc(CCC(=O)O)cc2[nH]1,99,102,14,-10
CCOc1ccc(NC(=O)CSC2=C(C#N)C(c3cccs3)C3=C(CC(C)(C)CC3=O)N2)cc1 (stereo not given),104,97,2,-30
Cc1ccc(C2=NNC(c3cccc(C)n3)S2)cc1 (stereo not given),103,106,85,-66
Cc1ccc(S(=O)(=O)N(CCC(=O)N2CCOCC2)c2ccccc2)cc1,107,99,1,3
O=C(Cn1nnc(-c2cccnc2)n1)N(c1ccccc1)c1ccccc1,102,100,-8,1
Cc1ccc2c(CN3CCNC(=O)C3)cc(=O)oc2c1C,105,109,-18,-26
O=C(NCC1CCCO1)c1ccc2c(Cl)c3c(nc2c1)CCCC3 (stereo not given),103,106,0,-22
CCOc1cc(CO)ccc1OCC(=O)Nc1ccc(C)c(Cl)c1,102,102,-6,-9
Cc1ccc(S(=O)(=O)N2CCN(S(=O)(=O)c3ccccc3)C2C(C)C)cc1 (stereo not given),95,85,nt,-22
O=C(c1ccncc1)N1c2ccccc2Sc2ccccc21,101,102,-50,-6
CC(=O)Nc1cccc(C(=O)OCC(=O)c2cc3ccccc3o2)c1,154,191,-6,-3
Cc1cc(NC(=O)c2noc3c2CC(C(C)(C)C)CC3)nn1Cc1ccc(Cl)cc1 (stereo not given),103,101,-6,-32

4 entries from above, with each value named.
SMILES: Cc1ccc(S(=O)(=O)N2CCN(S(=O)(=O)c3ccccc3)C2C(C)C)cc1 (stereo not given)
  Polio RdRp inh = 95
  Polio RdRp inh intensity = 85
  MbtI inh = nt
  MenB inh = -22

SMILES: O=C(Cn1nnc(-c2cccnc2)n1)N(c1ccccc1)c1ccccc1
  Polio RdRp inh = 102
  Polio RdRp inh intensity = 100
  MbtI inh = -8
  MenB inh = 1

SMILES: Cc1cc(NC(=O)c2noc3c2CC(C(C)(C)C)CC3)nn1Cc1ccc(Cl)cc1 (stereo not given)
  Polio RdRp inh = 103
  Polio RdRp inh intensity = 101
  MbtI inh = -6
  MenB inh = -32

SMILES: CCOc1ccc(NC(=O)CSC2=C(C#N)C(c3cccs3)C3=C(CC(C)(C)CC3=O)N2)cc1 (stereo not given)
  Polio RdRp inh = 104
  Polio RdRp inh intensity = 97
  MbtI inh = 2
  MenB inh = -30

Look-ups from above:
MenB inh result of `Cc1ccc2c(CC(=O)NC3CCCC3)coc2c1` : -19
MenB inh result of `COc1cc(C=Nc2ccc3[nH]c(=O)[nH]c3c2)ccc1OC(C)=O` : -31

New compounds follow
Results follow in this order: Polio RdRp inh, Polio RdRp inh intensity, MbtI inh, MenB inh
- COc1ccc(S(=O)(=O)Nn2cnnc2)cc1
→ 105, 103, -13, -13
- CCOC(=O)CN1CC23C=CC(O2)C(C(=O)NCc2ccc(F)cc2)C3C1=O (stereo not given)
→ 101, 102, -4, -18
- CC(C)(C)NC(=S)NN1C2CSC1CS2
→ 104, 106, -2, 5
- COC(=O)Cc1nc(NC(=O)c2nc(-c3ccccc3)oc2C)sc1C
→ 103, 104, -5, -16
- Cn1c(/C(C#N)=C(\O)Cc2ccccc2)nc2ccccc21
→ 102, 101, -1, -11
- COC(=O)c1ccc(N=Cc2ccc(Br)s2)cc1
→ 102, 111, nt, 3
- COc1ccc(-c2cc(C(F)(F)F)nc(SCCC(=O)Nc3cc(C)on3)n2)cc1
→ 104, 103, 4, -24
- COc1cccc(C2=NN(C(=O)c3ccccc3Cl)C(c3ccco3)C2)c1 (stereo not given)
→ 99, 100, 15, -31
- c1ccc(-c2nnc(COc3ncnc4c3cnn4-c3ccccc3)o2)cc1
→ 105, 106, -4, -8
- COC(=O)c1sc(NC(=O)c2cc3c(s2)CCCC3)nc1C
→ 101, 103, -35, 2
- Cc1cc(C(=O)NN=C2CCCCC2)c2ccccc2n1
→ 102, 102, 5, -18
- NC(=O)c1cc(S(=O)(=O)N(CCc2ccncc2)CC2CCCO2)cs1 (stereo not given)
→ 102, 103, -30, -10
- CCCCn1c(SCC(=O)Nc2ccccc2C(F)(F)F)nc2ccsc2c1=O
→ 100, 103, -6, -24
- Cc1cc(C)nc(SCC(=O)c2c[nH]c3ccccc23)n1
→ 104, 115, -5, 4
- CC(=O)Nc1ccc(OCc2nnc(C)o2)cc1
→ 101, 107, 1, 17
- O=C(c1ccccc1F)N1CCNCC1
→ 107, 113, nt, -6
- CCCC(=O)c1c(O)c2ccccc2oc1=O
→ 104, 103, 2, -11
- Cn1ccnc1S/C=C/C(=O)c1ccc(Cl)cc1
→ 99, 101, 59*, 5
- O=C(O)C1C2C=CC(O2)C1C(=O)Nc1cccc(C(F)(F)F)c1 (stereo not given)
→ 105, 102, nt, -21
- O=C(Nc1ccc(N2CCCCC2)cc1)c1ccc(F)cc1
→ 102, 97, 4, -3
- O=C(CSc1nccn1-c1cccc(Cl)c1)Nc1ccccc1
→ 100, 104, 9, -15
- CCNC(=S)N1CCN(C(=O)c2ccco2)CC1
→ 100, 102, -3, -7
- CCCC(C)NC(=O)N1CCOCC1 (stereo not given)
→ 108, 109, nt, 1
- O=C(/C(=N/O)n1cncn1)c1ccc(Cl)cc1Cl
→ 100, 102, -9, 0
- CN(CC(=O)N1CCc2ccccc2C1)c1ccccc1
→ 98, 94, -1, nt
- O=C1NCCCCC1NS(=O)(=O)c1cccc2ccccc12 (stereo not given)
→ 108, 105, 13, 6
- N#C/C(=C/c1ccc(C(=O)O)cc1)C(=O)Nc1ccccc1
→ 100, 101, 27, -25
- COc1ccc2oc(=O)cc(-c3cc4ccccc4o3)c2c1
→ 105, 106, 0, -24
- CC/C(C)=N/Oc1nc(NC(=O)NS(=O)(=O)c2ccccc2Cl)nc(N(C)C)n1
→ 97, 101, -11, -36
- Clc1ccc2c(c1)c1cc(Cl)ccc1n2CN1CCCCC1
→ 100, 104, -4, -6
